GIV-Gai inh – blocks GIV peptide binding to rat Galpha-i3 | hit rate 0.42% among 210,000 | P08753 | percent of control (FP), % (no concentration beside the values) | Galpha-i3/FITC-GIV peptide fluorescence polarization, 90 min; active compounds read low; scaled: aluminum fluoride 0%, vehicle 100% | AID 1224905;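 active = replicate mean at 85% of control or lower, very high polarization wells dropped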;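 also: wells of about 15 µL received 100 nL stock; the first replicate is given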
Target sequence (P08753 whole entry, looked up): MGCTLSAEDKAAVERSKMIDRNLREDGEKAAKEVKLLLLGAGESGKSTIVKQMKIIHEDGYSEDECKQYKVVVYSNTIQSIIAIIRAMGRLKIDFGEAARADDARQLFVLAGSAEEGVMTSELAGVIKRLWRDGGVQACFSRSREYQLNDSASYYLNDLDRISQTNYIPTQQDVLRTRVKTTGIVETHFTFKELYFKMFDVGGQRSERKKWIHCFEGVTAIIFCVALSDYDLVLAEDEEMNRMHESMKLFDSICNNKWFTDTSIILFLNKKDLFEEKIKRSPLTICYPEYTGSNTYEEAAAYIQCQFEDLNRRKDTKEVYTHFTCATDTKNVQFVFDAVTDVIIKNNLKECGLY
Numbers without * were called inactive.

GIV-Gai inh	structure
101	CCn1cnc2c(-c3ccccc3)cn(CC(=O)Nc3ccccc3)c2c1=O
101	O=C(c1ccc(SCCN2CCCCC2)nc1)N1CCC(N2CCCCC2)CC1
99	O=c1c2cn[nH]c2nc(SCc2nc(-c3ccc(F)c(Br)c3)no2)n1-c1ccccc1
105	O=C1N=C2N(CCN3CCCCC3)c3ccccc3N2/C1=C\c1ccc([N+](=O)[O-])s1
114	COCCN(CCOC)C(=O)c1c[nH]c2ccc(S(=O)(=O)N(C)c3ccc(Br)cc3)cc2c1=O
103	O=c1n(Cc2ccc3c(c2)OCO3)nc2c(S(=O)(=O)N3CCCCCC3)cccn12
102	CCn1c(=O)c2ccn(CC(=O)N3CCN(c4ccccn4)CC3)c2n(CC)c1=O
107	CCC(C)NS(=O)(=O)c1cc(-c2cc(C(F)(F)F)on2)sc1C (stereo not given)
103	CCOc1cc(C2C(C#N)=C(N)OC3=C2C(=O)CC(C)(C)C3)ccc1OC(=O)N1CCOCC1 (stereo not given)
-52*	O=c1c2ccc(NCCO)c3cccc(c32)c2nc3ccccc3n12

(listing goes on)
GIV-Gai inh	structure
111	Cc1ccc(S(=O)(=O)N2CCCC2c2cc(C(C)C)no2)cc1 (stereo not given)
102	O=S(=O)(c1ccc2c(c1)-c1oncc1CO2)N1CCCc2ccccc21
111	CCCS(=O)(=O)c1c(S(=O)(=O)CCC)c2c3ccccc3ccn2c1C(=O)N/N=C/c1cccc([N+](=O)[O-])c1
102	CCCCCCOc1ccc(C(=O)Oc2ccc(-c3ccc(C)cc3)cc2)cc1
102	Cc1ccc(-c2noc(-c3ccccc3S(=O)(=O)N3CCCCC3)n2)cc1
98	Cn1cc2c3c(cccc31)CN(C(=O)C1CCC1)CC2
109	Cc1nn(CC(=O)N2CCc3ccccc32)c(C)c1S(=O)(=O)N1CCCC(C(=O)Nc2ccccn2)C1 (stereo not given)
104	O=C(NCC1CCCO1)c1cc(NS(=O)(=O)c2ccc(Cl)cc2)cnc1N1CCNCC1 (stereo not given)
105	Cc1ccsc1C(=O)Nc1nnc(SCc2nnc(-c3ccccc3)o2)s1
108	O=C(NC1CCN(Cc2ccccc2)CC1)c1ccc2nc3cc(Cl)ccc3c(=O)n2c1

Continued:
GIV-Gai inh	structure
103	O=C(CSc1nc2ccsc2c(=O)n1-c1ccccc1)Nc1ncn[nH]1
115	COc1ccc(N2C(N)=C(C#N)C(c3cc(OC)c(OC)c(OC)c3)C3=C2CCCC3=O)cc1 (stereo not given)
101	Cc1cccc(N2CCN(S(=O)(=O)c3cc(-c4nc(C(C)C)cs4)sc3C)CC2)c1C
100	O=C(CN1c2ccccc2NC2=C(C(=O)CCC2)C1c1cccs1)NC1CCCCCC1 (stereo not given)
108	COc1ccc(C2(O)CN(c3cc(C)ccc3C)C3=[N+]2CCCC3)cc1 (stereo not given)
108	O=S(=O)(c1cccc2nonc12)N1CCN(c2ccccc2F)CC1
106	CC1CCN(c2nc(C(=O)NCCCOC(C)C)nc3nn(C)cc23)CC1
98	COc1cc(C2C(C(=O)OCC3CCCO3)=C(C)NC3=C2C(=O)CC(c2cccs2)C3)cc([N+](=O)[O-])c1O (stereo not given)
103	Fc1ccc(-c2noc(-c3ccc(NC4CC4)nc3)n2)cc1
110	O=C1c2ccccc2C(=O)c2c(NS(=O)(=O)c3ccc(CCCl)cc3)cccc21

Remaining list, next part
GIV-Gai inh	structure
121	CC(C)Nc1nc2nonc2nc1Nc1ccccc1
105	CC(C)c1ccc(-c2noc(N3CCC(C(=O)N4CCN(c5ccccn5)CC4)CC3)n2)cc1
112	O=C(c1ccc(F)cc1)c1ccc(-c2nc3ccccc3nc2-c2ccc(F)cc2)cc1
109	O=S(=O)(c1ccccc1)N1CCN(C2c3ccccc3-c3ccccc32)CC1
107	O=C(c1nc(Cn2c(=O)oc3ccccc32)no1)N1CCCC1
98	O=C(NC1CCCC1)C1CCN(c2nn3c(=O)c4c(nc3s2)CCCC4)CC1
106	C=CCN1C(=O)CC(c2ccccc2)Nc2ccccc21 (stereo not given)
109	O=C(CC1CCN(S(=O)(=O)c2cccs2)CC1)NCCC1=CCCCC1
98	COc1ccc(OC)c(C2CC(=O)Nc3c2c(C)nn3-c2nc3ccc(OC)cc3s2)c1 (stereo not given)
107	CCc1onc(C)c1C1CCCN1Cc1cc(OC)ccc1OC (stereo not given)

Remaining list, next part
GIV-Gai inh	structure
100	Cc1sc(-c2cc(C(F)(F)F)[nH]n2)cc1S(=O)(=O)N1CCC(C)CC1
108	CCCS(=O)(=O)c1c(S(=O)(=O)CCC)c2cc(-c3ccncc3)ccn2c1C(=O)c1ccc(C)cc1
99	CN1CCN(c2ccc3nnc(C4CCC4)n3n2)CC1
98	COc1cccc(C2Nc3c(C)cc(C)cc3[C@H]3OCCC[C@@H]23)c1 (stereo not given in full)
114	c1ccc(-c2oc3ncn4nc(-c5cccs5)nc4c3c2-c2ccccc2)cc1
93	C=CCn1c(SCC(=O)N2CCc3ccccc32)nc2c([nH]c3ccccc32)c1=O
105	CC1CCCCN1CCNC(=O)Cn1ccc2c(SCc3ccccc3)nccc21 (stereo not given)
107	Cc1cc(N2CCC(C(=O)NC3CCCC3)CC2)n2nc(-c3ccc(Cl)cc3)cc2n1
111	CCOC(=O)c1c(NC(=O)c2ccc(F)cc2)sc2c1CCN(C(C)=O)C2
111	Cc1ccc(S(=O)(=O)N2c3ccc(C)cc3-c3ccccc3S2(=O)=O)cc1

Further structures follow.
GIV-Gai inh	structure
107	CN(C)S(=O)(=O)c1ccc2c(c1)cc(C(=O)NCc1ccc(F)cc1)n2Cc1ccncc1
105	CC(=O)Nc1ccc(-c2noc(C3CCN(C(=O)CNC(=O)c4ccccc4)CC3)n2)cc1
101	Cc1ccc(C)c(C(=O)Cn2c(=O)n3nc(C)nc3c3ccccc32)c1
104	c1ccc(-c2nc(-c3cccc(-c4csc(C5CC5)n4)c3)no2)cc1
108	COc1ccc(/C=C2\Oc3ccc4c(C)cc(=O)oc4c3C2=O)cc1
96	CCCOc1ccc(CN2CCCC2c2cc(C(C)C)on2)cc1 (stereo not given)
113	Cc1cccc(C(=O)Nc2cc(F)c3[nH]c(=O)ccc3c2)c1
102	O=C(CSc1ccccc1)N1CCc2c([nH]c3ccccc23)C1c1cccnc1 (stereo not given)
106	CCC(=O)Nc1cccc(-c2noc(C3CCCN(C(=O)CNC(=O)Cc4ccccc4)C3)n2)c1 (stereo not given)
105	c1ccc2cc3nc4c(nc3cc2c1)[nH]c1ccccc14

Entries listed above that bear a hit mark in GIV-Gai inh:
GIV-Gai inh	structure
-52*	O=c1c2ccc(NCCO)c3cccc(c32)c2nc3ccccc3n12

Continued.
GIV-Gai inh	structure
100	Cc1ccc(N2C(=O)C3C(c4ccccc4Cl)OC4(C(=O)c5ccccc5C4=O)C3C2=O)cc1 (stereo not given)
92	Cc1nn(-c2cccc(F)c2)c2sc(C(=O)Oc3ccc4cnccc4c3)cc12
116	O=[N+]([O-])c1cccc(S(=O)(=O)NCCSc2nc3ccccc3s2)c1
111	CCc1csc(-c2ccc(S(=O)(=O)NCCN3CCCCC3C)s2)n1 (stereo not given)
104	CC(CCc1ccccc1)NC(=O)CN1CCCN(Cc2cccc(F)c2)S1(=O)=O (stereo not given)
99	CCOc1ccc(NC(=O)C(=O)NCCN2CCN(S(=O)(=O)c3ccc(C)cc3)CC2)cc1
119	COc1ccccc1C(=O)N/C(=C\c1ccc2c(c1)OCO2)C(=O)Nc1ccc(C(C)=O)cc1
108	CC(=O)n1c(/C=C2/N=C(c3ccc([N+](=O)[O-])cc3Cl)OC2=O)cc2ccccc21
108	O=C(NCCCN1CCCC1=O)C1CCN(c2cncnc2N2CCOCC2)CC1
104	Cc1cc(-n2c(C)nc3ccccc3c2=O)ccc1NC(=O)C(C)Oc1ccccc1 (stereo not given)

Part of the list above, in CSV form.
molecule,GIV-Gai inh
CCn1cnc2c(-c3ccccc3)cn(CC(=O)Nc3ccccc3)c2c1=O,101
O=C(c1ccc(SCCN2CCCCC2)nc1)N1CCC(N2CCCCC2)CC1,101
O=c1c2cn[nH]c2nc(SCc2nc(-c3ccc(F)c(Br)c3)no2)n1-c1ccccc1,99
O=C1N=C2N(CCN3CCCCC3)c3ccccc3N2/C1=C\c1ccc([N+](=O)[O-])s1,105
COCCN(CCOC)C(=O)c1c[nH]c2ccc(S(=O)(=O)N(C)c3ccc(Br)cc3)cc2c1=O,114
O=c1n(Cc2ccc3c(c2)OCO3)nc2c(S(=O)(=O)N3CCCCCC3)cccn12,103
CCn1c(=O)c2ccn(CC(=O)N3CCN(c4ccccn4)CC3)c2n(CC)c1=O,102
CCC(C)NS(=O)(=O)c1cc(-c2cc(C(F)(F)F)on2)sc1C (stereo not given),107
CCOc1cc(C2C(C#N)=C(N)OC3=C2C(=O)CC(C)(C)C3)ccc1OC(=O)N1CCOCC1 (stereo not given),103
O=c1c2ccc(NCCO)c3cccc(c32)c2nc3ccccc3n12,-52*
Cc1ccc(S(=O)(=O)N2CCCC2c2cc(C(C)C)no2)cc1 (stereo not given),111
O=S(=O)(c1ccc2c(c1)-c1oncc1CO2)N1CCCc2ccccc21,102
CCCS(=O)(=O)c1c(S(=O)(=O)CCC)c2c3ccccc3ccn2c1C(=O)N/N=C/c1cccc([N+](=O)[O-])c1,111
CCCCCCOc1ccc(C(=O)Oc2ccc(-c3ccc(C)cc3)cc2)cc1,102
Cc1ccc(-c2noc(-c3ccccc3S(=O)(=O)N3CCCCC3)n2)cc1,102
Cn1cc2c3c(cccc31)CN(C(=O)C1CCC1)CC2,98
Cc1nn(CC(=O)N2CCc3ccccc32)c(C)c1S(=O)(=O)N1CCCC(C(=O)Nc2ccccn2)C1 (stereo not given),109
O=C(NCC1CCCO1)c1cc(NS(=O)(=O)c2ccc(Cl)cc2)cnc1N1CCNCC1 (stereo not given),104
Cc1ccsc1C(=O)Nc1nnc(SCc2nnc(-c3ccccc3)o2)s1,105
O=C(NC1CCN(Cc2ccccc2)CC1)c1ccc2nc3cc(Cl)ccc3c(=O)n2c1,108
O=C(CSc1nc2ccsc2c(=O)n1-c1ccccc1)Nc1ncn[nH]1,103
COc1ccc(N2C(N)=C(C#N)C(c3cc(OC)c(OC)c(OC)c3)C3=C2CCCC3=O)cc1 (stereo not given),115

More compounds:
GIV-Gai inh	structure
101	Cc1ccc(Cc2nc(CCNC(=O)Nc3cccc(Br)c3)n[nH]2)cc1
106	CN(C)S(=O)(=O)c1ccc(-c2noc(C(=O)NCc3ccc(Br)cc3)n2)cc1
102	CC1CC(C)CN(CC2CCN(C(=O)Nc3cc(F)ccc3F)CC2)C1 (stereo not given)
101	Cc1ccc(-n2ccc(=O)c(-c3nc(-c4ccccc4Cl)no3)n2)cc1
124	COc1ccc(NC(=O)c2sc(=S)n(-c3ccccc3)c2N)cc1OC
105	O=C(Cn1cc(-c2nnc(CN3CCCCC3)o2)c2ccccc21)NCc1ccccc1Cl
104	Cc1cc(C)c(C#N)c(SCCS(=O)(=O)Cc2ccccc2)n1
104	Cc1ccc(S(=O)(=O)N2CCC3(CC2)NCCN=C3NCc2ccc(F)cc2)c(C)c1
105	CCc1cc(C2CCCN2C(=O)Cn2cc(Cl)cn2)on1 (stereo not given)
105	COc1ccc(OC)c(-c2csc(Nc3cc(C)ccn3)n2)c1

(next part)
GIV-Gai inh	structure
100	COc1ccc(-c2nc(CS(=O)(=O)c3ccc(C)cc3)no2)c(C)c1
102	O=C1CC(c2ccc(Cl)cc2)c2ccc3ccccc3c2N1 (stereo not given)
110	CC1(C)CC(=O)C(C(C2=C(O)CC(C)(C)CC2=O)c2cc(Br)ccc2O)C(=O)C1 (stereo not given)
106	COc1ccc(S(=O)(=O)n2c([N+](=O)[O-])cnc2C)cc1OC
104	Cc1c(C)c(C2=NON3N(C(=O)c4ccccc4)c4ccccc4N23)c(C)c(C)c1Cl
108	COc1cccc2cc(C(=O)Nc3cccc4c3C(=O)c3ccccc3C4=O)c(=O)oc12
105	C=CCNc1nc(Nc2ccc([N+](=O)[O-])cc2)nc(OCC)n1
106	CCOC(=O)CNC(=O)Nc1c(-c2ccc(Cl)cc2)[nH]c2ccccc12
101	O=C(NCc1ccc(-c2nn3cnnc3s2)cc1)c1cccnc1
102	Cn1c(=O)c2ccn(CC(=O)N3CCN(c4ccccn4)CC3)c2n(C)c1=O

Later entries
GIV-Gai inh	structure
101	Cc1ccc(SCC(=O)Nc2nnc(CCS(=O)(=O)c3ccc(Br)cc3)s2)cc1
104	O=c1/c(=C/c2ccccc2Cl)sc2nnc(-c3ccccc3)n12
102	COc1ccc(N2CCN(C(=O)Cn3ccc4c(c(C)nn4-c4ccccc4)c3=O)CC2)cc1
101	CCOC(=O)C1(C)/C(=N\Nc2ccc(Br)cc2)C(=O)C(=O)N1c1ccccc1 (stereo not given)
119	COc1ccc2c(c1)C(C)(C)C1(C=Cc3c(ccc4ccccc34)O1)N2C (stereo not given)
101	COc1ccccc1-n1c(=O)c2c3c(sc2n(Cc2ccc(C)cc2)c1=O)CN(C(C)=O)CC3
108	O=[N+]([O-])c1cc(-c2nc(-c3ccccc3)c(-c3ccccc3)[nH]2)c(O)c([N+](=O)[O-])c1
110	Cc1ccc2nc(CSc3nnc(C)s3)cc(=O)n2c1
104	COC(=O)c1ncoc1-c1ccccc1C(=O)NCc1ccccc1
113	COc1cc(OC)cc(C(=O)NCc2nnc(SCC(=O)N3CCc4ccccc43)n2-c2ccccc2OC)c1

Following part:
GIV-Gai inh	structure
109	CC1(C2CC2)NC(=O)N(c2ccc(Br)cc2)N1 (stereo not given)
112	COc1c(S(=O)(=O)n2nnc3ccccc32)ccc(Cl)c1Cl
109	Cc1ccc(CS/C(Nc2ccccc2C)=C(\C#N)C(N)=O)c(C)c1
103	COc1cc([N+](=O)[O-])ccc1N1C(=O)C2C3c4ccccc4C(c4ccccc43)C2C1=O (stereo not given)
102	CC(C)CCN=C1Nc2ccccc2NC12CCCCCC2
101	CCc1cc(C2CCCN2C(=O)c2cccs2)on1 (stereo not given)
109	c1ccc2c(c1)ccc1oc(=Nc3ccc(Oc4ccc(N=c5oc6ccc7ccccc7c6cc5-c5nc6ccccc6s5)cc4)cc3)c(-c3nc4ccccc4s3)cc12
108	OC(CN1CCN(C/C=C/c2ccccc2)CC1)Cn1c2ccccc2c2ccccc21 (stereo not given)
109	CC1(C)CC(=O)C2=C(C1)c1c(ccc3ccccc13)NC2c1cc([N+](=O)[O-])cc([N+](=O)[O-])c1O (stereo not given)

This is a subset (hit frequency here may not be typical).
